Screening results: PubChem, National Center for Advancing Translational Sciences (NCATS)
VACV Venus inh – vaccinia inhibition (Venus reporter) | Potency, µM (titrated, usually from 36.5 µM), inactives show at the top dose activity change, negative = inhibition, actives largely listed as inhibitors | 330,000 tested, 0.46% active | AID 720580 | Vaccinia virus Venus reporter expression, fluorescence; active means well fitted inhibition curve with a large enough effect; inconclusive means small, poorly fitted or top-dose-only effect; inactive means no such curve, though single readings can be large or run the other way; tested in A549 cells; also: nearly all actives have a fitted effect of over 30% in size; inactives centre near -10
VACV mCherry inh – vaccinia inhibition (mCherry reporter) | Vaccinia virus mCherry reporter infection, fluorescence; about a quarter of the inactives have no number | Potency, µM (series often up to 36.5 µM), without a hit: at the top dose activity change, negative = inhibition, actives largely listed as inhibitors | 310,000 tested, 0.63% active | AID 720579; active = well fitted inhibition curve with a large enough effect; inconclusive = small, poorly fitted or top-dose-only effect; inactive = no such curve, though single readings can be large or run the other way; tested in A549 cells; also: nearly all actives have a fitted effect of over 35% in size; inactives centre near -10
Numbers without * were called inactive; i = inactive; ? = inconclusive; nt = no result given; & = joins results of further samples; [ ] = remark or other dose. % is scaled to controls: 0 for no effect and ±100 for the full control effect; potency is read from the fitted curve at half-maximal effect.

Under each structure: VACV Venus inh, VACV mCherry inh
> O=C(c1cnn2c(C(F)(F)F)cc(-c3ccccc3)nc12)N1CCCCC1c1cccnc1 (stereo not drawn)
  -10%, -23%
> CCCOc1ccc(C2CC(=O)Nc3c2c(C)nn3-c2nncc(-c3cccc(OC)c3)n2)cc1OC (stereo not drawn)
  -14%, 10%
> CC(=O)O[C@H]1C[C@@]2(C)[C@@H](C[C@@H](O)[C@H]3[C@@]4(C)CC[C@@H](O)[C@@H](C)C4CC[C@@]32C)/C1=C(\CCC=C(C)C)C(=O)O (stereo partly drawn)
  -12%, -13%
> CC(=O)N1CCc2c(sc3c2c(=O)n(CCc2ccccc2)c(=O)n3Cc2ccccc2C)C1
  -23%, -27%
> COc1ccc(C2=CC(=O)CC(c3ccc(OC)cc3)C2)cc1 (stereo not drawn)
  -17%, -3%
> CCc1cc(C(=O)c2ccc(C)cc2)c(NC(=O)CCl)s1
  -23%, -8%
> COc1ccc(NC(=O)CN(C)S(=O)(=O)c2cccc3nsnc23)cc1OC
  -9%, i
> Cc1cccc(N2CC(C(=O)OCC(=O)Nc3sccc3C(N)=O)CC2=O)c1C (stereo not drawn)
  -1%, -14%
> O=C(c1ccc(S(=O)(=O)NCC2CCCO2)cc1)N1CCN(c2ccccc2)CC1 (stereo not drawn)
  -10%, -8%
> COc1ccc(Cc2nc(-c3ccccc3)no2)cc1
  -3%, i
> Cc1ccc(NC(=O)CN2C(=O)CCc3cc(S(=O)(=O)N4CCOCC4)ccc32)c(C)c1
  -6%, -18%
> O=C(OCc1ccc(F)cc1)c1cc(S(=O)(=O)N2CCCCC2)ccc1N1CCOCC1
  -11%, i
> CCOc1ccc2nc(NC(=O)c3cccnc3)sc2c1
  -7%, -9%
> CC1CCCCN1C(=O)CSc1nnc(-c2ccccc2O)o1 (stereo not drawn)
  -6%, ?
> N/C(=N\OC(=O)CCCOc1ccc(Cl)cc1Cl)c1ccccn1
  9%, i
> CCC(=O)N(C)CCc1cc2c(c(OC)c1/C=N/NC(=O)[C@H]1C[C@@H]1c1ccccc1)OCO2
  -16%, i
> C[C@@H]1CN=C2N(CCNC(=O)CCC3CCCCC3)[C@H](Cc3ccc(O)cc3)CN21
  -3%, -4%
> O=C1C2C3C=CC(C3)C2C(=O)N1CNc1ccccc1 (stereo not drawn)
  -6%, i
> Cc1ccc(-c2cc(C(=O)N3CCN(S(=O)(=O)c4ccc(Br)s4)CC3)[nH]n2)cc1C
  -29%, -15%
> O=C(Cn1c(C(F)(F)F)nc2ccccc21)c1ccccc1
  -12%, i
> COc1cccc2c(=O)c(C/C=C(/C)Cl)c(C)[nH]c12
  -24%, ?
> Cc1ccc(C(=O)Nc2nccs2)cc1
  3%, -11%
> CC(C)c1ccc(NC2CCCN(C(=O)CN3CCCC3=O)C2)cc1 (stereo not drawn)
  -1%[7.34 µM], i[7.34 µM]
> COC(=O)c1ccc(NC(=O)CCOc2ccccc2)cc1
  -3%&-11%, -18%
> OCC1(Cc2ccccc2)CCCN(Cc2cn[nH]c2-c2ccccc2)C1 (stereo not drawn)
  -14%, -11%
> CCOC(=O)N1CCC(=NNC(=O)Cn2ccc(C(F)(F)F)n2)CC1
  9%, -1%
> O=C(CSc1ccc(F)cc1)NCCc1ccc(Cl)cc1
  -22%, 1%
> CC1CC(C)CN(C(=O)C2CCN(S(=O)(=O)c3cccs3)CC2)C1 (stereo not drawn)
  -10%, -15%
> COc1cnc(-c2ccccn2)nc1N(C)c1ccccc1
  ?, ?
> Cc1c(C(=O)OCC(=O)N(C)c2ccccc2)cccc1[N+](=O)[O-]
  -11%, -18%
> CCOc1ccc(S(=O)(=O)N2CCN(c3c(C)cccc3C)CC2)c2ccccc12
  0%, -11%
> O=S(=O)(c1ccc(Cl)cc1)N1CCC2(CC1)OCCN2S(=O)(=O)c1cccs1
  -11%, i
> O=C(Nc1ccccc1N1CCCCC1)c1cccc([N+](=O)[O-])c1
  -6%, -17%
> O=C(NCc1cccnc1)C(=O)Nc1ccc([N+](=O)[O-])cc1
  -8%, i
> COc1ccc(/C=N\NC(=O)c2ccc(F)cc2)cc1COc1cc(F)ccc1[N+](=O)[O-]
  -14%, -17%
> O=C(NCCc1ccccc1)c1cc(-c2ccccc2)c(N2CCOCC2)s1
  -9%, 13%
> CSc1ccc(/C=C(/NC(=O)c2ccccc2)C(=O)NCCCn2ccnc2)cc1
  -8%, -14%
> O=C(CCn1nc(-c2ccccc2)c2ccccc2c1=O)N1CCN(c2ccccc2)CC1
  -14%, ?
> COc1cc(-c2[nH]nc3c2C(c2ccco2)C(C#N)=C(N)O3)cc(OC)c1OC (stereo not drawn)
  -18%, 0%
> O=C(CSCc1cccc(Cl)c1)N1CCN(Cc2ccc3c(c2)OCO3)CC1
  -18%, -2%
> O=C(NC1CCCCC1)C(c1cccnc1)N(CCc1ccccc1)C(=O)Cc1cccs1 (stereo not drawn)
  3%, -6%
> COc1ccc(CNC(=O)[C@H](C)NC(=O)C2CCN(C(=O)[C@@H](N)CCSC)CC2)cc1
  2%, 1%
> COc1ccc(CCNC(=O)C2=C(C)C(=O)OC23CCCCC3)c(OC)c1
  -9%, -8%
> C/C=C\C(=O)Nc1cccc(C2=NOC3(C2)C[C@H](C(N)=O)N(C(=O)Cc2ccc([N+](=O)[O-])cc2)C3)c1 (stereo partly drawn)
  -7%, i
> Cc1ccc(-c2csc3ncn(CC(=O)N4CCOCC4)c(=O)c23)cc1
  -20%, -28%
> N#CCSc1nc2c(c(=O)n1Cc1ccco1)C1(CCCC1)Cc1ccccc1-2
  -29%, -7%
> Oc1c(Br)cc(/C=N/Nc2ccc(Cl)nn2)cc1Br
  -9%, -15%
> Cc1cc(C)nc(Nc2ccc(Br)cc2C(=O)O)n1
  2%, ?
> O=C(CCC(=O)Nc1ccccc1Cl)NNC(=S)Nc1ccccc1C(F)(F)F
  -5%, i
> Cc1nn(CCCC(=O)O)c(C)c1[N+](=O)[O-]
  -9%, -2%

Single records, as listed above. Order of values: VACV Venus inh | VACV mCherry inh
Profile of Oc1c(Br)cc(/C=N/Nc2ccc(Cl)nn2)cc1Br : -9% | -15%
Profile of O=C(NC1CCCCC1)C(c1cccnc1)N(CCc1ccccc1)C(=O)Cc1cccs1 (stereo not drawn) : 3% | -6%
Profile of N#CCSc1nc2c(c(=O)n1Cc1ccco1)C1(CCCC1)Cc1ccccc1-2 : -29% | -7%
Profile of Cc1nn(CCCC(=O)O)c(C)c1[N+](=O)[O-] : -9% | -2%
Profile of Cc1cc(C)nc(Nc2ccc(Br)cc2C(=O)O)n1 : 2% | ?

Continued.
Under each structure: VACV Venus inh, VACV mCherry inh
> O=C(Oc1ccccc1Cl)c1ccc(N2CCOCC2)c([N+](=O)[O-])c1
  2%, -13%
> O=C(NCCc1csc(-c2cccnc2)n1)c1cccc(C(F)(F)F)c1
  -2%, -15%
> COc1ccc(C2C(C#N)=C(N)Nc3onc(C(C)(C)C)c32)c(OC)c1 (stereo not drawn)
  ?, -17%
> COc1cc2c3c(c1OC)C1(C=CC(=NO)C=C1)CC3N(C(C)=O)CC2 (stereo not drawn)
  -15%, -21%
> O=C(C1CCN(S(=O)(=O)c2c(Cl)cccc2Cl)CC1)N1CCCCCCC1
  -15%, -14%
> N#Cc1cccnc1N1CCN(C(=O)c2cccc3c2C(=O)c2ccc(-c4ccc(F)cc4OCc4ccccc4)cc2S3(=O)=O)CC1
  -17%, i
> CC1(C(=O)O)CCCN1C(=O)c1cccc(F)c1 (stereo not drawn)
  16%, -4%
> O=C(NC1CCN(Cc2ccccc2)CC1)c1ccc(Cn2c(=O)c3ccccc3n(Cc3ccccc3)c2=O)cc1
  ?, ?
> CCCCN(C(=O)Cn1nnc2ccccc21)C(C(=O)NCCOC)c1ccc(OC)cc1 (stereo not drawn)
  -9%, -1%
> CCCN1C(=O)c2ccccc2CC1(C)C(=O)NC1CCCCC1 (stereo not drawn)
  -15%, -9%
> Cn1c(N)c(C(=O)COC(=O)c2cc(-c3ccccc3)nc3ccccc23)c(=O)n(Cc2ccccc2)c1=O
  -18%, -25%
> COc1ccc(-n2c(C)cc(/C=C3\SC(=S)N(Cc4ccco4)C3=O)c2C)cc1
  6%, -18%
> CC1=C(C(N)=O)C(c2ccccc2Br)n2ncnc2N1 (stereo not drawn)
  -3%, -1%
> O=C(Nc1ccccc1)N1CCCCC1c1cccnc1 (stereo not drawn)
  -8%, -15%
> CC(C)(O)C#Cc1ccc(C(=O)N2CCCC2C(=O)O)s1 (stereo not drawn)
  -7%, nt
> Cc1ccc(-n2c(COc3ccccc3)nnc2SCC(=O)O)cc1
  -9%, i
> Cc1cc(C)n2c(C)nnc2c1
  7%, -8%
> O=C(CSc1ccc2c(c1)OCCO2)NCCN1C(=O)CSC1=O
  -11%, nt
> Cc1csc(NC(=O)CSc2ccccc2F)n1
  -25%, -14%
> Cc1ccc(NC(=O)c2ccc(C)c(S(=O)(=O)N3CCOCC3)c2)nc1
  -15%, i
> COc1ccc(-c2cc(=O)c3c(OC(C)=O)cc(OC(C)=O)cc3o2)cc1
  ?, -17%
> COc1cc(=O)n2c(c1C(=O)N(C)Cc1nonc1C)CCN(Cc1c(F)cccc1F)CC2
  -2%, -10%
> OC(c1cccc(Cl)c1)c1ncc(-c2ccc3ccccc3c2)[nH]1 (stereo not drawn)
  -24%, -22%
> CC(/C=C/C1[C@H](C)C[C@H](O[C@@H]2O[C@H](CO)[C@@H](O)[C@H](O)[C@H]2O)CC1(C)C)O[C@H]1O[C@H](CO)[C@@H](O)[C@H](O)[C@H]1O (stereo partly drawn)
  -2%, 24%
> CCOc1ccc(-c2nn(-c3ccccc3)cc2C2NC(=O)NC(C)=C2C(=O)OC(C)C)cc1C (stereo not drawn)
  -4%, 7%
> Nc1ccn([C@@H]2O[C@H](C(=O)N3CCCN(Cc4ccccc4F)CC3)[C@@H](O)[C@H]2O)c(=O)n1
  0%, 32%[activator]
> O=S(=O)(NCc1cccnc1)c1ccc(Br)c2ccccc12
  -13%, -7%
> CSc1ccccc1C(=O)Nc1ccc2c(c1)CCC2
  -4%, -27%
> CC(=O)Nc1ccc(S(=O)(=O)NC2(C(F)(F)F)NC(=O)N(CC(C)C)C2=O)cc1 (stereo not drawn)
  2%, 11%
> NC(=O)CC(NC(=O)Cc1ccc(Br)cc1)c1ccc(NCc2ccc(F)c(F)c2)c([N+](=O)[O-])c1 (stereo not drawn)
  ?, 18µM*
> CC(C)(C)OC(=O)NCCCCCO
  -11%, i
> CN(C)CCOc1ccc(/C(=C(/CCCl)c2ccccc2)c2ccccc2)cc1
  -28%, -15%
> COc1ccccc1C(=O)Nc1ccc(NC(=O)c2ccco2)cn1
  -13%, i
> CCOCc1cn(CC(=O)c2ccc(Cl)cc2)c(C)nc1=N
  -14%, nt
> O=C(Nc1ccccc1N1CCCCC1)C1CCN(S(=O)(=O)c2ccccc2C(F)(F)F)CC1
  -9%, -11%
> Cc1nn(-c2ccccc2)c(N2CCCC2)c1/C=N/NC(=O)C1CC1
  2%, -12%
> CC(=O)OCC1OC(Oc2cc(OC(C)=O)c3c(=O)cc(-c4ccc(OC(C)=O)cc4)oc3c2)[C@@H](OC(C)=O)C(OC(C)=O)C1OC(C)=O (stereo partly drawn)
  -1%, 5%
> CCOc1ccc(C(=O)Nc2ccc(NC(=O)c3ccco3)c(Cl)c2)cc1Cl
  -19%, nt
> COc1ccccc1C(=O)NCCC(=O)N1CCN(c2ccccc2Cl)CC1
  ?, -14%
> CCOC(=O)N1CCN(CC(O)c2c[nH]c3ccc(OC)cc23)CC1 (stereo not drawn)
  -13%, -8%
> CN(Cc1ccccc1)S(=O)(=O)c1ccc2c(c1)CCC(=O)N2
  -7%, -13%
> Cc1cccc(-c2cc(NC(=O)c3ccccc3C)n(-c3ccccc3)n2)c1
  -6%, -11%
> C=CCN1CCN(c2nc3ccccc3nc2C#N)CC1
  -12%, -12%
> COCCn1c(SCc2ccc(C(=O)OC)o2)nc2cc(Cl)ccc2c1=O
  -9%, -12%
> Cc1ccc(/C=C/S(=O)(=O)NCC(=O)O)cc1
  0%, -2%
> COc1cc(/C=C(\C#N)c2nc3ccccc3o2)ccc1O
  212%[activator], ?
> Cc1ccc(N2C(=O)C3C4C=CC(CNC(=S)Nc5ccc(Cl)cc5)(O4)C3C2=O)cc1 (stereo not drawn)
  -14%, -26%

Quoted from above for reference:
Under each structure: VACV Venus inh, VACV mCherry inh
> CN(Cc1ccccc1)S(=O)(=O)c1ccc2c(c1)CCC(=O)N2
  -7%, -13%
> Cc1cccc(-c2cc(NC(=O)c3ccccc3C)n(-c3ccccc3)n2)c1
  -6%, -11%
> C=CCN1CCN(c2nc3ccccc3nc2C#N)CC1
  -12%, -12%

Rows are unselected. Share with any hit: about 0.86%.
